Vaccinia stage = Vaccinia orthopox stage-specific inhibition; Vaccinia-infected cells, mCherry/Venus stage reporter fluorescence; active compounds read low; some inactives read as strong as hits; activity change (mCherry), % (no concentration beside the values); 89,000 compounds, 0.01% hits;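 active means mCherry past -33% and 40 or more points under the early reporter, replicates agreeing; inconclusive means past -33% without that gap or agreement; tested in A549 cells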;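 further: scaled between vehicle wells and reference inhibitor wells; 23 nL library stock went into each well; one replicate is shown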
Vaccinia stage Venus = also measured in Vaccinia stage; calls as there; activity change (Venus), %; measured here: Venus reporter, other viral stage;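 negative = less Venus signal; first of two replicates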
The depositor's hits bear a star; ? = inconclusive; nt = no result given; & = joins results of further samples. An excerpt; the hit share may differ from the screen's.

SMILES	Vaccinia stage	Vaccinia stage Venus
Cc1noc(C)c1NC(=O)N(C)C[C@@H]1Oc2ccc(NC(=O)CCC(F)(F)F)cc2C(=O)N([C@H](C)CO)C[C@@H]1C	-3	-8
Cc1noc(C)c1S(=O)(=O)N(C)C[C@@H]1OCc2ccccc2-c2c(n(C)c3ccccc23)C(=O)N([C@H](C)CO)C[C@H]1C	-33	-22
CCC(=O)N1CC2(CN(C(=O)Nc3ccccc3F)C2)c2c([nH]c3cc(OC)ccc23)[C@H]1CO	1	3
C[C@H](CO)N1C[C@H](C)[C@H](CN(C)S(=O)(=O)c2cccs2)Oc2ccc(NC(=O)Nc3ccc4c(c3)OCO4)cc2C1=O	-11	2
COc1ccc(C#Cc2ccc3c(c2)[C@]2(C(=O)N3)[C@H](c3ccccc3OCCO)N3[C@H](c4ccccc4)[C@H](c4ccccc4)OC(=O)[C@H]3[C@@H]2C(=O)N2CCCCCCC2)cc1	-11	-3
COCc1cn(CC[C@H]2CC[C@@H](NC(=O)Nc3ccc(Cl)cc3)[C@H](CO)O2)nn1	7	6
C[C@H](CO)N1C[C@H](C)[C@H](CN(C)C(=O)Nc2cccc3ccccc23)Oc2ccc(NC(=O)Cc3cn(C)c4ccccc34)cc2C1=O	-13	-11
CNC[C@@H]1Oc2c(NC(=O)Nc3ccc4c(c3)OCO4)cccc2C(=O)N([C@@H](C)CO)C[C@H]1C	6	4
C/C=C/c1ccc2c(c1)O[C@@H](CN(C)C(=O)c1ccncc1)[C@@H](C)CN([C@@H](C)CO)S2(=O)=O	1	1
C[C@@H]1CN([C@H](C)CO)C(=O)Cc2cc(NS(=O)(=O)c3ccccc3)ccc2O[C@H]1CN(C)C(=O)NC1CCCCC1	6	6
Cc1ccc(S(=O)(=O)N(C)C[C@H]2Oc3cc(C#Cc4ccccc4)ccc3S(=O)(=O)N([C@@H](C)CO)C[C@H]2C)cc1	?	nt
CO[C@@H]1CN(C)C(=O)c2ccc(NC(=O)c3cnccn3)cc2OC[C@@H](C)N(C(=O)C2CC2)C[C@@H]1C	8	-2
C[C@@H]1CCCCO[C@H](CN(C)S(=O)(=O)c2cn(C)cn2)[C@H](C)CN([C@H](C)CO)C(=O)c2cc(NS(=O)(=O)c3ccccc3)ccc2O1	7	14
Cc1cccc(-c2ccc([C@@H]3[C@@H](CO)N4CCCCN(CCC(F)(F)F)C[C@@H]34)cc2)c1	?	nt
C/C=C/c1ccc([C@H]2[C@@H](C#N)N(C(=O)Cc3ccccn3)[C@H]2CO)cc1	0	11

9 entries from above, arranged by length of the SMILES, high to low:
SMILES	Vaccinia stage	Vaccinia stage Venus
COc1ccc(C#Cc2ccc3c(c2)[C@]2(C(=O)N3)[C@H](c3ccccc3OCCO)N3[C@H](c4ccccc4)[C@H](c4ccccc4)OC(=O)[C@H]3[C@@H]2C(=O)N2CCCCCCC2)cc1	-11	-3
C[C@@H]1CCCCO[C@H](CN(C)S(=O)(=O)c2cn(C)cn2)[C@H](C)CN([C@H](C)CO)C(=O)c2cc(NS(=O)(=O)c3ccccc3)ccc2O1	7	14
C[C@H](CO)N1C[C@H](C)[C@H](CN(C)C(=O)Nc2cccc3ccccc23)Oc2ccc(NC(=O)Cc3cn(C)c4ccccc34)cc2C1=O	-13	-11
Cc1noc(C)c1S(=O)(=O)N(C)C[C@@H]1OCc2ccccc2-c2c(n(C)c3ccccc23)C(=O)N([C@H](C)CO)C[C@H]1C	-33	-22
Cc1noc(C)c1NC(=O)N(C)C[C@@H]1Oc2ccc(NC(=O)CCC(F)(F)F)cc2C(=O)N([C@H](C)CO)C[C@@H]1C	-3	-8
C[C@@H]1CN([C@H](C)CO)C(=O)Cc2cc(NS(=O)(=O)c3ccccc3)ccc2O[C@H]1CN(C)C(=O)NC1CCCCC1	6	6
CO[C@@H]1CN(C)C(=O)c2ccc(NC(=O)c3cnccn3)cc2OC[C@@H](C)N(C(=O)C2CC2)C[C@@H]1C	8	-2
Cc1cccc(-c2ccc([C@@H]3[C@@H](CO)N4CCCCN(CCC(F)(F)F)C[C@@H]34)cc2)c1	?	nt
COCc1cn(CC[C@H]2CC[C@@H](NC(=O)Nc3ccc(Cl)cc3)[C@H](CO)O2)nn1	7	6

More results
SMILES	Vaccinia stage	Vaccinia stage Venus
CCC(=O)N1C[C@H](C)[C@H](OC)CN(C)C(=O)c2cc(NC(=O)C3CC3)ccc2OC[C@H]1C	7	-4
COc1ccc(NC(=O)N(C)C[C@H]2OCCCC[C@@H](C)Oc3ccc(NS(=O)(=O)c4ccc(C)cc4)cc3C(=O)N([C@H](C)CO)C[C@@H]2C)cc1	0	-2
C[C@H](CO)N1C[C@H](C)[C@@H](CN(C)Cc2ccc(-c3ccccc3)cc2)Oc2ccc(NC(=O)CCC(F)(F)F)cc2CC1=O	?	nt
C[C@@H]1CN([C@H](C)CO)C(=O)c2cc(/C=C/c3ccccc3)cnc2O[C@@H]1CN(C)Cc1cccnc1	-9	-6
C[C@H](CO)N1C[C@H](C)[C@@H](CN(C)C(=O)Nc2ccccc2)Oc2ccc(NC(=O)CCCCCC(=O)Nc3ccccc3N)cc2CC1=O	19	14
O=C(C[C@@H]1C[C@H]2c3cc(NC(=O)NC4CCCCC4)ccc3O[C@H]2[C@@H](CO)O1)NCc1ccccc1	8	10
O=C(c1cccc(F)c1)N1CC(=O)N2[C@H](CO)[C@@H](c3ccc(C#Cc4ccc(F)cc4)cc3)[C@H]2C1	?	nt
C[C@@H]1CN([C@H](C)CO)C(=O)c2cc(NC(=O)Cc3ccccc3)ccc2O[C@@H]1CN(C)S(=O)(=O)c1ccc(Cl)cc1	-7	5
Cc1cccc(S(=O)(=O)N2CC[C@@H]3[C@@H](CO)Nc4ccc(C#Cc5cccc(F)c5)cc4[C@@H]32)c1	-23	-19
COc1ccc(S(=O)(=O)N(C)C[C@@H]2OCCCC[C@@H](C)Oc3ccc(NC(=O)CCCN(C)C)cc3C(=O)N([C@@H](C)CO)C[C@@H]2C)cc1	8	-1
C[C@H]1CN([C@@H](C)CO)C(=O)c2cccc(NS(=O)(=O)c3cn(C)cn3)c2O[C@H]1CN(C)Cc1ccc(Oc2ccccc2)cc1	13	8
COCCNC(=O)C[C@@H]1C[C@@H]2c3cc(NS(=O)(=O)c4ccccc4)ccc3O[C@@H]2[C@H](CO)O1	5	0
C[C@@H]1CCCCO[C@@H](CN(C)Cc2ccc(C(=O)O)cc2)[C@H](C)CN([C@H](C)CO)C(=O)c2cc(NC(=O)Nc3ccc(F)cc3)ccc2O1	13	5
COCC#Cc1ccc([C@H]2[C@@H](CO)N3C(=O)CN(C(=O)C4CCCC4)C[C@H]23)cc1	12	7
COC(=O)[C@@H]1[C@@H](CO)[C@@H]2Cn3c(ccc(-c4ccc(OC)cc4)c3=O)[C@@H]2N1S(C)(=O)=O	2	-1
CC(=O)N[C@H]1C=C[C@H](CC(=O)NCc2ccc(Cl)cc2)O[C@@H]1CO	8	7
CC(C)NC(=O)N(C)C[C@H]1OCCCC[C@H](C)Oc2ccc(NC(=O)c3ccccc3)cc2C(=O)N([C@@H](C)CO)C[C@H]1C	-1	-3
CN(C)C(=O)c1ccc(-c2ccc3c(c2)[C@@H]2[C@@H](CCN2C(=O)c2ccc(F)cc2)[C@H](CO)N3C)cc1	?	nt
COc1ccc(C#Cc2cnc3c(c2)C(=O)N([C@H](C)CO)C[C@@H](C)[C@H](CN(C)CC2CCCC2)O3)cc1	?	nt
CO[C@@H]1CN(C)C(=O)c2ccc(NC(=O)C3CC3)cc2OC[C@@H](C)N(CC2CCCC2)C[C@H]1C	-9	-3
C[C@H]1CN([C@@H](C)CO)C(=O)c2cc(NC(=O)C3CC3)ccc2O[C@@H]1CN(C)S(=O)(=O)c1cccs1	5	-4
COc1ccc(CN(C)C[C@H]2Oc3ccc(NC(=O)Nc4ccc(OC)cc4)cc3C(=O)N([C@@H](C)CO)C[C@@H]2C)cc1	-9	-4
O=C(Nc1cccc(F)c1)N1CC(=O)N2[C@H](CO)[C@H](c3ccc(-c4ccc(F)cc4)cc3)[C@@H]2C1	?	nt
C[C@H](CO)N1C[C@H](C)[C@@H](CN(C)S(=O)(=O)c2cccs2)Oc2ccc(NC(=O)Cc3ccccc3)cc2CC1=O	-14	-11
C[C@H](CO)N1C[C@H](C)[C@@H](CN(C)S(=O)(=O)c2cn(C)cn2)OCCCC[C@H](C)Oc2ccc(NC(=O)Nc3ccccc3)cc2C1=O	8	2
COc1ccc(NC(=O)N(C)C[C@@H]2Oc3ccc(NS(=O)(=O)c4ccc(F)cc4)cc3CC(=O)N([C@H](C)CO)C[C@@H]2C)cc1	4	0
C[C@@H]1CCCCO[C@H](CN(C)S(=O)(=O)c2ccc(Cl)cc2)[C@H](C)CN([C@@H](C)CO)C(=O)c2cc(NC(=O)c3ccncc3)ccc2O1	-21	-18
O=C(C[C@@H]1C=C[C@@H](NC(=O)Nc2ccc3c(c2)OCO3)[C@@H](CO)O1)NCc1ccc(F)cc1	5	11
COc1ccc(NC(=O)Nc2ccc3c(c2)CC(=O)N([C@H](C)CO)C[C@@H](C)[C@H](CN(C)Cc2ccc(C(=O)O)cc2)O3)cc1	13	7
CCOC(=O)CCCCCC(=O)Nc1ccc2c(c1)C(=O)N([C@@H](C)CO)C[C@H](C)[C@H](CN(C)S(=O)(=O)c1ccc(OC)cc1)OCCCC[C@H](C)O2	5	-2
Cc1cccc(S(=O)(=O)N2CC[C@@H]3[C@@H](CO)Nc4ccc(C#Cc5cccnc5)cc4[C@@H]32)c1	-2	-5
C/C=C/c1cccc(-c2nc(C(=O)N(C)C)cc3c2[C@H](CCO)N([S@@](=O)C(C)(C)C)C3)c1	11	15
CO[C@H](CN(C)S(=O)(=O)c1ccc(F)cc1)[C@H](C)CN(C(=O)Nc1ccccc1F)[C@H](C)CO	-15	-8
C[C@@H]1CCCCO[C@H](CN(C)Cc2ccc(Cl)c(Cl)c2)[C@@H](C)CN([C@@H](C)CO)C(=O)c2cc(NS(=O)(=O)c3ccc(F)cc3)ccc2O1	?	nt
C[C@@H]1CN([C@@H](C)CO)C(=O)CCCn2cc(nn2)CO[C@H]1CN(C)C(=O)c1ccncc1	7&3	8&7
COc1ccc(NC(=O)N(C)C[C@@H]2Oc3ccc(NC(=O)CCCN(C)C)cc3C(=O)N([C@H](C)CO)C[C@@H]2C)cc1	5	4
CC(C)NC(=O)N(C)C[C@@H]1Oc2cc(-c3ccccc3F)ccc2S(=O)(=O)N([C@@H](C)CO)C[C@H]1C	-9	-7
CN1C[C@@H](O)COC[C@H]2O[C@H](CC(=O)NC3CCC3)CC[C@@H]21	3	11
O=C(C[C@H]1C[C@H]2c3cc(NC(=O)Cc4ccncc4)ccc3O[C@H]2[C@H](CO)O1)NCc1cc(F)ccc1F	16	15
C[C@H](CO)N1C[C@H](C)[C@H](CN(C)C(=O)NC2CCCCC2)OCCCC[C@H](C)Oc2ccc(NS(=O)(=O)c3ccc(F)cc3)cc2C1=O	?	nt
O=C(NC1CCC1)[C@@H]1[C@@H](CO)[C@@H]2Cn3c(ccc(C4=CCCCC4)c3=O)[C@@H]2N1C(=O)C1CCOCC1	9	-3
O=S(=O)(N[C@H]1CC[C@H](CCn2cc(-c3ccc(F)cc3)nn2)O[C@@H]1CO)c1ccccc1F	1	0
COCC#Cc1cnc2c(c1)C(=O)N([C@H](C)CO)C[C@H](C)[C@@H](CN(C)S(=O)(=O)c1ccccc1)O2	-1&-6	7&1
O=C(c1ccc(F)cc1)N1CC(=O)N2[C@H](CO)[C@H](c3ccc(-c4cccnc4)cc3)[C@@H]2C1	24	-6
CO[C@H]1CN(C)C(=O)c2cccc(C#N)c2OC[C@H]2O[C@@H](CC[C@H]2OC)CCN(C)C(=O)[C@@H]1C	13	-1
O=C(Nc1ccccc1)N1CC(=O)N2[C@H](C1)[C@H](c1ccc(C#CC3CC3)cc1)[C@@H]2CO	-19	-11
O=C(NCC[C@H]1CC[C@@H](NS(=O)(=O)c2ccc(Oc3ccccc3)cc2)[C@@H](CO)O1)C1CC1	-16	-5
N#C[C@@H]1[C@@H](c2ccc(C#CC3CCCCC3)cc2)[C@H](CO)N1C(=O)Nc1ccc(F)cc1	-31	-21
C[C@@H]1CN([C@H](C)CO)S(=O)(=O)c2ccc(C#Cc3ccccn3)cc2O[C@@H]1CN(C)Cc1cccc(F)c1	?	nt
C[C@@H](NC(=O)C[C@H]1C[C@@H]2c3cc(NC(=O)C4CCC4)ccc3O[C@@H]2[C@@H](CO)O1)c1ccccc1	3	6
Cc1noc(C)c1S(=O)(=O)Nc1ccc2c(c1)CC(=O)N([C@H](C)CO)C[C@H](C)[C@H](CN(C)Cc1ccc(C(=O)O)cc1)O2	18	29
C[C@@H]1CN([C@@H](C)CO)C(=O)c2cccc(NC(=O)Nc3ccc(F)cc3)c2O[C@@H]1CN(C)S(=O)(=O)c1ccc(F)cc1	?	nt
C[C@H](CO)N1C[C@H](C)[C@H](CN(C)S(=O)(=O)c2ccc(F)cc2)Oc2ncc(/C=C/c3ccccc3)cc2C1=O	-26&-28	-26&-19
O=C(c1ccccc1)N1C[C@@H]2[C@H](c3ccccc31)[C@@H](CO)N2Cc1cc(F)ccc1F	-5	4
CC(C)CC#Cc1ccc2c(c1)O[C@@H](CN(C)S(=O)(=O)c1ccc(F)cc1)[C@@H](C)CN([C@H](C)CO)S2(=O)=O	?	nt
COC(=O)[C@H]1[C@H](CO)[C@H]2Cn3c(ccc(C4=CCCCC4)c3=O)[C@@H]1N2CC1CCCC1	-3	-20
CC(C)NC(=O)NCC[C@@H]1CC[C@H](NS(=O)(=O)c2ccccc2)[C@@H](CO)O1	11	8
O=C(Nc1ccc2c(c1)[C@H]1C[C@H](CC(=O)N3CCOCC3)O[C@H](CO)[C@H]1O2)NC1CCCC1	13	6
C[C@H](CO)N1C[C@H](C)[C@@H](CN(C)C(=O)Nc2ccc3c(c2)OCO3)Oc2c(NC(=O)c3ccc(-c4nccs4)cc3)cccc2C1=O	11	10
Cc1ccc(S(=O)(=O)N2[C@@H]3CNC[C@H]2C3c2ccc(-c3ccccc3C)cc2)cc1 (some centres undefined)	23&-6	9&1
COc1ccccc1NC(=O)N[C@@H]1CC[C@@H](CC(=O)N[C@H](C)c2ccccc2)O[C@H]1CO	1	2

Source: PubChem BioAssay
